HNF4A DNA FP = change in binding of human HNF4A to DNA, primary screen, biochemical, fluorescence polarization, FITC-DNA | Hepatocyte nuclear factor 4-alpha (Homo sapiens), P41235 | 1 h | activity change, % at 10 µM | 0.3% of 360,000 active | AID 1224865, 2016; in the data active = activity change above about 30%, passing the limit was not always enough;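 note: controls were the assay level and a saturating level of protein; the project sought stronger binding though the title names inhibitors; some compounds called inactive have numbers as strong as hits; positive values seem to mean higher polarization but the record does not say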
B2AR ag = beta2AR agonists driving receptor internalization, primary screen, cell-based, FAP fluorogen, flow cytometry; response, % (concentration not given with the values); AID 504454, 2011; Am2.2-beta2AR cells; reference of the scale not given here; 0.43% of 340,000 active;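 active = response above a set limit, near 3 SD of response in nonfluorescent compounds, cut at about 42% in these data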;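 note: stock transfer was 100 nL into about 11 µL; a reference agonist was the positive control; negative values mostly stem from fluorescent compounds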
LANA-H2B inh = blockers of LANA interaction with H2A/H2B – biochemical, FP readout, HTS, primary screen; cell-free LANA-H2A/H2B peptide, fluorescence polarization; 0.6% of 320,000 active; AID 2629, 2010; inhibition, % (no concentration beside the values); Protein LANA1 (Human herpesvirus 8 type P (isolate GK18)), Q9QR71; in the data active = inhibition mostly above about 10%, no sharp cut-off; inactive = mostly below about 6.7%;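 note: stock transfer was 7.5 nL into about 10 µL; 0% = median of vehicle wells and 100% = median of positive control wells; one replicate is shown; the record names a cut of 25% in any replicate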
Target sequence (Q9QR71 whole entry, looked up): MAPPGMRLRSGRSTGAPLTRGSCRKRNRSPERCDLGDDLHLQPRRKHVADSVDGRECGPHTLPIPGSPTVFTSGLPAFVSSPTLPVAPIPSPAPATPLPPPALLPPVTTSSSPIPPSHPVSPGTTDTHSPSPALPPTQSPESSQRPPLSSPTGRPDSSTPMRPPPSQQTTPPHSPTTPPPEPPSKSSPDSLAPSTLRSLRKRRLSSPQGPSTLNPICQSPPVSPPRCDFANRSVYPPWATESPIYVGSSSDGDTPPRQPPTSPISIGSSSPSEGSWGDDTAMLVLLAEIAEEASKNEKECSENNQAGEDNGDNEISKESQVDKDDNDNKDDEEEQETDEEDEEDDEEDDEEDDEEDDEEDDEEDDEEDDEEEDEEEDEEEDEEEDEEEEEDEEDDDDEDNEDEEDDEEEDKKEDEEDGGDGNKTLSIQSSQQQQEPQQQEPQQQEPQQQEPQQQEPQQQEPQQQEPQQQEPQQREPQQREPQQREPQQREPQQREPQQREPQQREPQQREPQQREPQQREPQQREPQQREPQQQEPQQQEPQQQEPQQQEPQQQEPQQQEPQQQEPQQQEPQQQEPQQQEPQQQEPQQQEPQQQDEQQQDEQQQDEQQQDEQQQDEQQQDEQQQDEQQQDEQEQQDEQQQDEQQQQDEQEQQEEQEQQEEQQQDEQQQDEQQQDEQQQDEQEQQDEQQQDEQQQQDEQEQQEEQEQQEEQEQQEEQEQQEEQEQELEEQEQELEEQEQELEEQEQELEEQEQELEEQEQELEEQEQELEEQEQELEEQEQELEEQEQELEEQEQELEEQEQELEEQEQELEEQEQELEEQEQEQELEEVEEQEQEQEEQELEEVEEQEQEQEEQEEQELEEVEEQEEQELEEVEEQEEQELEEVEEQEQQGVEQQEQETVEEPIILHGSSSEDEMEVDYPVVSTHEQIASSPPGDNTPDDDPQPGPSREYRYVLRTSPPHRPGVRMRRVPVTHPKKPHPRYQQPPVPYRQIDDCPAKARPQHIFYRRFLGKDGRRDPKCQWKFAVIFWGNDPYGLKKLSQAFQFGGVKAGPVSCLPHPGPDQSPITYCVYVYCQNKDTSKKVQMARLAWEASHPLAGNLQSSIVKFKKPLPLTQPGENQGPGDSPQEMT
UCH37 inh = inhibitors of human UCH37 deubiquitinase, primary screen, biochemical, Ub-AMC cleavage, fluorescence; Ubiquitin carboxyl-terminal hydrolase isozyme L5 (Homo sapiens), Q9Y5K5; purified proteasome/UCH37; inhibition, % (test concentration not listed); 0.33% of 330,000 active; AID 588478, 2011;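 active = mean of two replicates above 20%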;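 note: 0% = compound-free wells with enzyme and 100% = wells lacking proteasome; stock transfer was 100 nL into about 20 µL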
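Material: Human UCH37 enzyme supplied as purified proteasome complex | Schedule: 30 min preincubation with enzyme, 25 min cleavage at room temperature | Detection: AMC fluorescence 355/460 nm | Measure: % inhibition of Ub-AMC cleavage fluorescence | Controls: Wells without proteasome as full block, compound-free enzyme plus substrate as uninhibited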
Ecoli growth = E. coli growth inhibition, primary screen, OD600 | 0.21% of 330,000 active | Escherichia coli growth, 23 h; hits give low values | OD600 absorbance (test concentration not listed);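 active = OD600 absorbance below the run mean of sample wells minus 3.6 SD, in any replicate, cut at about 0.56 in these data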;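 note: stock transfer was 300 nL into about 60 µL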
FGF22 binding = binders of human FGF22 protein, primary screen, FGF22 synaptogenesis inhibitor project, biophysical, thermal shift, single point; Fibroblast growth factor 22 (Homo sapiens), Q9HCT0; recombinant FGF22 thermal shift, SYPRO orange fluorescence; percent of sucrose octasulfate shift, DMSO zero; calls only at 9.99 µM; 1.5% of 340,000 active;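 active = melting point raised past a set limit in the mean and every replicate; three in four hits are not shown here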
ALR H2O2 inh = inhibitors of human ALR sulfhydryl oxidase, primary screen, biochemical, H2O2 detection, HRP-luminol luminescence, single point; FAD-linked sulfhydryl oxidase ALR (Homo sapiens), P55789; purified ALR, DTT oxidation; inhibition, % (no concentration beside the values); 3.8% of 290,000 active; AID 485317, 2010;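 active = mean and each replicate at 75% or more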;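 note: stock transfer was 7.5 nL into about 7.5 µL; 0% = neutral wells and 100% = wells with inactivated enzyme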
Starred values were filed as active, the others as inactive. An excerpt. The share of hits here may be higher or lower than overall.

For COc1ccc(NC(=O)CSc2nnc(-c3ccncc3)n2CC2CCCO2)c(OC)c1 (centres undefined) the results were HNF4A DNA FP -24, B2AR ag 7, LANA-H2B inh -1.6, UCH37 inh 0.6, Ecoli growth 0.68 and ALR H2O2 inh -4.
Screening O=C(Cc1cccc(NC(=O)C2CCCN(C(=O)CCc3ccccc3)C2)c1)Nc1ccc(C(=O)N2CCOCC2)cc1 (centres undefined) returned HNF4A DNA FP -1.1, B2AR ag -3 and FGF22 binding inactive.
`CC(C)c1onc(C(=O)N2CCN(c3ccccc3)CC2)c1[N+](=O)[O-]` gave HNF4A DNA FP 4.5, B2AR ag -4, LANA-H2B inh 3.6, UCH37 inh 2.1, Ecoli growth 0.71 and FGF22 binding inactive.
CCOc1ccc(C(C)=O)cc1CSc1nnc(-c2cccs2)n1CC1CCCO1 (centres undefined) was read as HNF4A DNA FP 0.9, B2AR ag -13, LANA-H2B inh -1.1, UCH37 inh 4.6, Ecoli growth 0.76 and ALR H2O2 inh 0.
`O=C(COc1ccc(CO)cc1)Nc1ccc(F)cc1` gave HNF4A DNA FP -2.4, B2AR ag 1, LANA-H2B inh -1.6, UCH37 inh -0.2, Ecoli growth 0.66 and ALR H2O2 inh -1.
For Cc1ccc(S(=O)(=O)NN2C(=O)/C(=C/c3cccc(F)c3)SC2=S)cc1 the results were HNF4A DNA FP 3.8, B2AR ag 4, LANA-H2B inh -1.8, UCH37 inh 11, Ecoli growth 0.66, FGF22 binding inactive and ALR H2O2 inh 51.
For CN(Cc1ccccc1)S(=O)(=O)c1ccc(NS(=O)(=O)Cc2ccccc2)cc1 the results were HNF4A DNA FP 0.0, B2AR ag 48*, LANA-H2B inh 1.5, UCH37 inh 0.8, Ecoli growth 0.66 and ALR H2O2 inh 0.
For COc1ccc(OC)c(S(=O)(=O)N2CCN(c3ccc(F)cc3)CC2)c1 the results were HNF4A DNA FP 5.2, B2AR ag 4, LANA-H2B inh 2.1, UCH37 inh 3.1, Ecoli growth 0.62, FGF22 binding inactive and ALR H2O2 inh 8.
CCCC(c1nnnn1Cc1ccco1)N1CCN(c2cc(Cl)ccc2C)CC1 (centres undefined) was read as HNF4A DNA FP 1.6, B2AR ag -1, LANA-H2B inh -2.7, UCH37 inh 0.5, Ecoli growth 0.7 and ALR H2O2 inh -11.
`O=S(=O)(NC(=NCc1ccccc1)c1ccccc1F)c1ccccc1` gave HNF4A DNA FP -0.6, B2AR ag -1, LANA-H2B inh 7.4, UCH37 inh 2.7, Ecoli growth 0.69, FGF22 binding inactive and ALR H2O2 inh 1.
`Cc1ccc(C(C)C)c2oc(=O)cc(-c3ccc(-c4ccc(C(F)(F)F)cc4)cc3)c12` gave HNF4A DNA FP 2.9, B2AR ag 2, UCH37 inh 3.0, Ecoli growth 0.69 and FGF22 binding inactive.
COc1ccc(/C=C\C(=O)c2c(O)ccc3c(C)cc(=O)oc23)cc1OC was read as HNF4A DNA FP -3.5, B2AR ag 26, LANA-H2B inh 16*, UCH37 inh 4.8 and Ecoli growth 0.67.
For CCCNc1nc2c(c(=O)n(C)c(=O)n2C)n1CCc1ccccc1 the results were HNF4A DNA FP 0.8, B2AR ag -9, LANA-H2B inh 1.4, UCH37 inh 0.6, Ecoli growth 0.65 and ALR H2O2 inh 54.
CN(Cc1nccs1)C(=O)c1ccc2nc(Cc3ccccc3F)oc2c1 was read as HNF4A DNA FP 6.9, B2AR ag -11, LANA-H2B inh -6.0, UCH37 inh -1.4, Ecoli growth 0.65, FGF22 binding inactive and ALR H2O2 inh 2.
For CC(C)NC(=O)NC(=O)COC(=O)c1ccccc1Oc1ccccc1 the results were HNF4A DNA FP -2.4, B2AR ag -15, LANA-H2B inh 5.1, UCH37 inh 0.5, Ecoli growth 0.72 and ALR H2O2 inh -3.
Screening CC1CCCCN1C(=O)Cn1cc(C#N)c2ccccc21 (centres undefined) returned HNF4A DNA FP -1.7, B2AR ag -7, LANA-H2B inh 2.3, UCH37 inh -1.4, Ecoli growth 0.77 and ALR H2O2 inh -3.
Screening CC(C)CNS(=O)(=O)c1ccc(CCC(=O)N2CCN(Cc3ccc4c(c3)OCO4)CC2)cc1 returned HNF4A DNA FP -0.6, B2AR ag -3, LANA-H2B inh 1.3, UCH37 inh -0.5, Ecoli growth 0.74 and ALR H2O2 inh -14.
Cc1ccccc1N=C1SCCN1C(=O)CN1C(=O)NC2(CCCC2)C1=O was read as HNF4A DNA FP -1.2, B2AR ag 2, LANA-H2B inh 0.6, UCH37 inh 3.0, Ecoli growth 0.71, FGF22 binding inactive and ALR H2O2 inh 2.
Screening CCOC(=O)N1CCC(NS(=O)(=O)c2ccc3c(c2)oc(=O)n3C)CC1 returned HNF4A DNA FP 4.2, B2AR ag -165, LANA-H2B inh -2.5, UCH37 inh 0.8, Ecoli growth 0.61 and ALR H2O2 inh -3.
COc1cccc(C2C(C(=O)c3ccc(C)o3)=C(O)C(=O)N2c2cc(C)on2)c1 (centres undefined) was read as HNF4A DNA FP 3.2, B2AR ag 1, LANA-H2B inh -5.2, UCH37 inh 8.3, Ecoli growth 0.71, FGF22 binding inactive and ALR H2O2 inh 71.
Screening CCOC(=O)c1oc2ccccc2c1NC(=O)CN1CCOCC1 returned HNF4A DNA FP -3.6, B2AR ag 5, LANA-H2B inh -4.0, UCH37 inh -8.9, Ecoli growth 0.68, FGF22 binding inactive and ALR H2O2 inh 4.
CCCCC(c1nnnn1CCOC)N1CCN(CC)CC1 (centres undefined) was read as HNF4A DNA FP 0.8, B2AR ag -15, LANA-H2B inh -2.4, UCH37 inh -1.1, Ecoli growth 0.69 and ALR H2O2 inh -1.
Cc1noc(C)c1COc1cccc(C(=O)Nc2cccnc2)c1 was read as HNF4A DNA FP 8.7, B2AR ag 2, LANA-H2B inh -1.6, UCH37 inh 0.4, Ecoli growth 0.72 and FGF22 binding inactive.
O=C(c1ccc2ccccc2c1)N1CCN(c2ccc(O)cc2)CC1 was read as HNF4A DNA FP -1.5, B2AR ag -6, LANA-H2B inh 1.2, UCH37 inh 3.6 and Ecoli growth 0.68.
CCN(Cc1nc(-c2ccc(OC)c(OC)c2)no1)C(=O)c1ccoc1C was read as HNF4A DNA FP -1.1, B2AR ag 5, LANA-H2B inh 4.2, UCH37 inh 2.0, Ecoli growth 0.65, FGF22 binding inactive and ALR H2O2 inh -6.
`CSc1nc2c(c(=O)n1-c1ccc(C)cc1)SCC2` gave HNF4A DNA FP -3.4, B2AR ag -15, LANA-H2B inh -7.2, UCH37 inh 5.1, Ecoli growth 0.73 and ALR H2O2 inh -4.
Screening Cc1ccc(-c2nnc(SCC(=O)NCC3CCCO3)n2C)cc1 (centres undefined) returned HNF4A DNA FP -0.1, B2AR ag -3, LANA-H2B inh -2.1, UCH37 inh 0.4, Ecoli growth 0.71 and ALR H2O2 inh 0.
`CCC(=O)Nc1ccc(NC(=O)c2cccc3c(Br)cccc23)cc1` gave HNF4A DNA FP 0.0, B2AR ag -1, LANA-H2B inh 5.3, UCH37 inh -0.3, Ecoli growth 0.68, FGF22 binding inactive and ALR H2O2 inh -8.
`O=C(CCN1C(=O)/C(=C/c2cccs2)SC1=S)Nc1cccc(C(=O)O)c1` gave HNF4A DNA FP 12, B2AR ag -6, LANA-H2B inh -11, UCH37 inh 4.6, Ecoli growth 0.69, FGF22 binding inactive and ALR H2O2 inh 0.
For Cc1cc(N2CCCCCC2)n2nc(C)c(-c3ccccc3)c2n1 the results were HNF4A DNA FP -0.4, B2AR ag 4, LANA-H2B inh -0.1, UCH37 inh -46, Ecoli growth 0.7, FGF22 binding inactive and ALR H2O2 inh 2.
CN(C(=O)c1cccc(NC(=O)Cc2cccc(NC(=O)C3CCCN(C(=O)c4ccccc4)C3)c2)c1)C1CCC1 (centres undefined) was read as HNF4A DNA FP -0.8, B2AR ag 0, UCH37 inh 0.0, Ecoli growth 0.68 and FGF22 binding inactive.
O=C(CN1C(=O)/C(=C\c2ccccc2Cl)Sc2ccccc21)NCCCN1CCOCC1 was read as HNF4A DNA FP 2.3, B2AR ag 5, LANA-H2B inh -0.4, UCH37 inh 5.1, Ecoli growth 0.67, FGF22 binding inactive and ALR H2O2 inh -1.
For CCC(C(N)=NCCc1ccc(OC)c(OC)c1)c1ccccc1 (centres undefined) the results were HNF4A DNA FP 0.6, B2AR ag 6, LANA-H2B inh 0.6, UCH37 inh 3.6, Ecoli growth 0.67, FGF22 binding inactive and ALR H2O2 inh -24.
`COc1cc2c(cc1OC)C(c1ccc(C(F)(F)F)cc1)CC(=O)N2` (centres undefined) gave HNF4A DNA FP -0.4, B2AR ag -13, LANA-H2B inh -4.1, FGF22 binding inactive and ALR H2O2 inh 1.
O=C(N/N=C/C1=Cc2ccccc2OC1)c1ccncc1 was read as HNF4A DNA FP 4.5, B2AR ag 3, LANA-H2B inh 0.2, FGF22 binding inactive and ALR H2O2 inh -14.
O=C(Nc1cccnc1)Nc1ccc2c(c1)OCO2 was read as HNF4A DNA FP 0.7, B2AR ag 0, LANA-H2B inh 0.7, UCH37 inh 0.6, Ecoli growth 0.74 and ALR H2O2 inh 54.
For COC(=O)c1cc(=O)n(Cc2ccc(F)cc2)c(=NCc2ccc(F)cc2)s1 the results were HNF4A DNA FP 1.2, B2AR ag 0, LANA-H2B inh 1.5, UCH37 inh 0.2, Ecoli growth 0.72, FGF22 binding inactive and ALR H2O2 inh 3.
For O=C(CSc1nnc2ccccn12)NC(=O)NC1CCCCC1 the results were HNF4A DNA FP 1.3, B2AR ag -7, LANA-H2B inh -7.6, UCH37 inh 3.3, Ecoli growth 0.69 and ALR H2O2 inh -11.
O=C(Nc1cccc(-c2nc3ccccc3[nH]2)c1)c1ccco1 was read as HNF4A DNA FP -2.0, B2AR ag 13, LANA-H2B inh -0.8, UCH37 inh 5.6, Ecoli growth 0.65 and ALR H2O2 inh -3.
`O=C(O)c1ccc(CP(=O)(c2ccccc2)c2ccccc2)cc1` gave HNF4A DNA FP 5.8, B2AR ag -2, LANA-H2B inh 1.8, UCH37 inh 0.2, Ecoli growth 0.66, FGF22 binding inactive and ALR H2O2 inh -1.
`COc1ccc(CCN2C(=O)CC(N3CCC(C(N)=O)CC3)C2=O)cc1OC` (centres undefined) gave HNF4A DNA FP -1.2, B2AR ag -2, LANA-H2B inh 1.4, UCH37 inh 2.7, Ecoli growth 0.69, FGF22 binding inactive and ALR H2O2 inh -4.

Part of the list above in order of heavy-atom count, lowest first.
`O=C(O)c1ccc(CP(=O)(c2ccccc2)c2ccccc2)cc1` gave HNF4A DNA FP 5.8, B2AR ag -2, LANA-H2B inh 1.8, UCH37 inh 0.2, Ecoli growth 0.66, FGF22 binding inactive and ALR H2O2 inh -1.
`O=C(CCN1C(=O)/C(=C/c2cccs2)SC1=S)Nc1cccc(C(=O)O)c1` gave HNF4A DNA FP 12, B2AR ag -6, LANA-H2B inh -11, UCH37 inh 4.6, Ecoli growth 0.69, FGF22 binding inactive and ALR H2O2 inh 0.
`COc1ccc(CCN2C(=O)CC(N3CCC(C(N)=O)CC3)C2=O)cc1OC` (centres undefined) gave HNF4A DNA FP -1.2, B2AR ag -2, LANA-H2B inh 1.4, UCH37 inh 2.7, Ecoli growth 0.69, FGF22 binding inactive and ALR H2O2 inh -4.

Gathered by group: the entries above with a CF3 group
`Cc1ccc(C(C)C)c2oc(=O)cc(-c3ccc(-c4ccc(C(F)(F)F)cc4)cc3)c12` gave HNF4A DNA FP 2.9, B2AR ag 2, UCH37 inh 3.0, Ecoli growth 0.69 and FGF22 binding inactive.
`COc1cc2c(cc1OC)C(c1ccc(C(F)(F)F)cc1)CC(=O)N2` (centres undefined) gave HNF4A DNA FP -0.4, B2AR ag -13, LANA-H2B inh -4.1, FGF22 binding inactive and ALR H2O2 inh 1.

Screening results from PubChem.
